Bioassay records (PubChem BioAssay)
Rango complex inh: qHTS Assay for Inhibitors of Rango (Ran-regulated importin-beta cargo) - Importin beta complex formation; Rango CFP/YFP FRET sensor + importin beta, 45 min; Potency, µM (titrated, usually from 92.2 µM), for inactives: top-dose inhibition of complex formation; 0.031% of 340,000 active; AID 540263, 2011; active = rising FRET ratio curve, often small or poorly fitted; inconclusive = mostly compound fluorescence or quenching in the first reads; inactive = flat curves in all reads;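 further: potency means the concentration at half of the fitted maximal effect; 0% = DMSO wells and 100% = buffer wells lacking importin beta; nearly all actives have a fitted effect of over 15% in size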
Target sequence (Q14974 whole entry, looked up): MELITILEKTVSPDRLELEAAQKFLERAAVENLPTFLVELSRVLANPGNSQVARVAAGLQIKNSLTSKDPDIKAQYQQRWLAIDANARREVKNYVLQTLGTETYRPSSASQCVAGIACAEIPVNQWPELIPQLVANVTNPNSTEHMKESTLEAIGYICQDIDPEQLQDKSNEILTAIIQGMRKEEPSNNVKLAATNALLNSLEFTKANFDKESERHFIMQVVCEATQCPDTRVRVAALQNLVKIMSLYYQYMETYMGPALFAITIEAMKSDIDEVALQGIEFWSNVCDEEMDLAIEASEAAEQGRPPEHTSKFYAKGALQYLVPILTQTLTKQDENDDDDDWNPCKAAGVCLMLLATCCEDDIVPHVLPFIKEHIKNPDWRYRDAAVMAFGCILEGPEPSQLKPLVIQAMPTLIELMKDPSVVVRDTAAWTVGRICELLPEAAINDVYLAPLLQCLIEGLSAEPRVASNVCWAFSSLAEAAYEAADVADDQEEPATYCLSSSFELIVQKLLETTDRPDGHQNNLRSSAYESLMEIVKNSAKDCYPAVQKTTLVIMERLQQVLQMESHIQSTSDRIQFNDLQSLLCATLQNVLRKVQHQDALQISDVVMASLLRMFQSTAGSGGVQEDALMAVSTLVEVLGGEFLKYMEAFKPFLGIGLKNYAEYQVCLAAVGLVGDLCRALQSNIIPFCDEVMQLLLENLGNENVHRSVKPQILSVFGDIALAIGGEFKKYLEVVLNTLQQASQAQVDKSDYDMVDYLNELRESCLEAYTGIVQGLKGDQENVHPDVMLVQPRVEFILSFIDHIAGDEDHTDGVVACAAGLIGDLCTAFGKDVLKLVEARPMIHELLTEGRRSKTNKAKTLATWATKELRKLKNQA
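FRET biosensor Rango (snurportin 1 IBB between N-terminal EYFP and C-terminal Cerulean), 50 nM in PBS/1 mM DTT/0.02% Tween-20/0.1% BSA, preincubated 5 min RT with compound; 0.125 microM importin beta added, 45 min RT, CFP/YFP FRET ratio read.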
miR-21 FLuc: qHTS Assay for Modulators of miRNAs and/orActivators of miR-21; AID 2288, 2010; HeLa miR-21 FLuc reporter, luciferase, 48 h; Potency, µM (top dose mostly 38.3 µM), for inactives: at the top dose reporter change, positive = more light; 340,000 tested, under 10 active; active = well fitted rising curve with a large enough effect; inconclusive = small, poorly fitted or top-dose-only effect; inactive = no such curve, though single readings can be large or run the other way;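 further: % of control where 0% means no effect; miR-21 action dims this reporter so a rising signal means less miR-21 action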
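HeLa miR-21-FLuc reporter line, endogenous miR-21; 2000 cells/well in DMEM/10% FBS; compound titration up to ~40uM final, 48 h, 37 degree Celsius; luciferase detection reagent, 15 min lysis, CCD luminescence.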
GLA inh pH 4.5: qHTS Assay for Inhibitors of Human alpha-Galactosidase at pH 4.5. Alpha-galactosidase A (Homo sapiens), P06280. purified enzyme, 4-MU-alpha-Gal fluorescence, pH 4.5. activity change, negative = inhibition, % at 105 µM. 230,000 tested, under 10 active; inconclusive = small, poorly fitted or top-dose-only inhibition, or a rising curve; inactive = flat fitted curve, though single readings scatter; no compound was filed as active;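 further: 0% = full activity with enzyme and -100% = basal without enzyme; dose as in the result columns while the protocol names 77 µM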
Rango dissoc inh: qHTS Assay for Inhibitors of RanGTP induced Rango (Ran-regulated importin-beta cargo) - Importin beta complex dissociation; Potency, µM (top dose mostly 46.1 µM), without a hit: top-dose activity change, negative = inhibition; 0.071% of 340,000 active; Snurportin-1 (Homo sapiens) + GTP-binding nuclear protein Ran (Homo sapiens) + Importin …; Biochemical FRET Rango-importin beta, RanGTP-induced dissociation; active means falling FRET ratio curve, often poorly fitted, with flat reads before Ran was added; inconclusive means other falling curves, or compound fluorescence or quenching; inactive means flat or rising ratio curve;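 further: potency means the concentration at half of the fitted maximal effect; % of control where 0% means no effect; nearly all actives have a fitted effect of over 45% in size; -100% = wells without RanGTP and RCC1; the record marks most hits as doubtful in a second field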
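Quantitative HTS using a FRET biosensor: 0.1 uM Rango, 0.25 uM importin beta, 0.6 uM Ran, 2 mM GTP, 0.2 uM RCC1 final, PBS with DTT, Tween-20 and BSA. Post-read taken 45 min after Ran addition.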
* hit, by the source's call; u = inconclusive; x = not tested or not shown; [ ] = another dose, or the depositor's remark. The list is partial; the hit share may differ from the screen's.

SMILES	Rango complex inh	miR-21 FLuc	GLA inh pH 4.5	Rango dissoc inh
Cc1oc(-c2ccccc2)cc1C(=O)Nc1ccc2ccccc2c1	-1.9%	-15%	-17	10%
N#Cc1c(N)oc(-c2ccccc2)c1-c1ccccc1	-2.8%	1%	3	2%
Nc1nnc(CCS(=O)(=O)c2ccc(Br)cc2)s1	-3.7%	1%	-4	0%
COc1ccc(CC(NC(C)=O)C(=O)NC2CCN(C(=O)c3ccc([N+](=O)[O-])cc3)CC2)cc1OC (centres undefined)	-3.2%	1%	1	8%
Cn1nnnc1SCCNS(=O)(=O)c1ccccc1	-0.4%	0%	3	21%
CCn1cc(C(=O)NP(=O)(Nc2ccc(C)cc2)Nc2ccc(C)cc2)c2ccccc21	0.9%	5%	-3	-21%
COCCCn1c(=O)/c(=C\c2ccccc2OC(C)C)s/c1=C(/C#N)C(=O)Nc1ccc(C(=O)O)cc1	u	0%	-15	u
COC(=O)C1=C(C(=O)OC)SC2(S1)C(C(=O)OC)=C(C(=O)OC)SC1=C2c2cc(C)cc(C)c2NC1(C)C	-1.7%	-4%	-2	-21%
CCOC(=O)Nc1ccc2c(CN3CCC(C(=O)OC)CC3)cc(=O)oc2c1	-3.6%	-3%	x	-15%
CCOC(=O)NC(=O)CSc1nnc(C)s1	u	-3%	2	4%
COCC(=O)NC1CCN(S(=O)(=O)c2cccc(C(C)=O)c2)CC1	-2.8%	0%	-16	-11%
CCOc1ccc2nc(SCc3ccc(OC)cc3)sc2c1	-5.8%	-21%	2	-1%
Cc1ccc(-c2nc3cc(NS(=O)(=O)c4ccc(C)cc4)ccc3o2)cc1	-7.5%	-7%	-6	-27%
CC(=O)Nc1ccc(NS(=O)(=O)c2ccccc2)cc1	2.8%	4%	0	-13%
COc1ccc(NC(=O)Nc2cccc3c2O[C@H](CN(C)C(=O)NC2CCCCC2)[C@@H](C)CN([C@H](C)CO)C3=O)cc1	-0.2%	x	x	-8%
CN(C)S(=O)(=O)c1cc(NC(=O)COC(=O)CCc2ccccc2)ccc1Cl	1.8%	1%	x	6%
Cc1ccc(-c2cc(C(F)(F)F)n3nc(C(=O)Nc4ccon4)cc3n2)cc1C	u	0%	-1	-8%
O=C(Nc1ccc(Cl)cc1)OCc1cc(-c2ccccc2)on1	-4.5%	-27%	5	-1%
O=C1c2ccc(Oc3ccc([N+](=O)[O-])cc3)cc2C(=O)N1c1ccncc1	-0.1%	0%	-1[21.1 µM]	6%
Cc1ccc(OCC(=O)N/N=C/C=C/c2ccco2)cc1	-2.0%	0%	-3	-24%
O=C(Cn1nc(C(=O)O)c2ccccc2c1=O)Nc1cc(S(=O)(=O)N2CCCCC2)ccc1Cl	0.0%	x	x	3%
COc1ccc(S(=O)(=O)NCC(=O)Nc2cccc(C)c2C)cc1OC	-0.3%	5%	-7	7%
NC(=O)C1Cc2ccccc2CN1S(=O)(=O)c1cccs1 (centres undefined)	0.9%	-3%	1	-3%
Nc1c(-c2ccc(Cl)cc2)cnn1C1CCS(=O)(=O)C1 (centres undefined)	0.2%	-11%	1	6%
Cc1cccc(NC(=O)c2ccc(N3C(=O)C4CCCCC4C3=O)cc2)c1C (centres undefined)	-4.0%	-5%	x	-7%
CC(C)(CC(=O)O)CC(=O)N1CCCN(c2nccc(C(F)(F)F)n2)CC1	-0.6%	2%	x	0%
Cc1ccc2sc(NNC(=O)c3cc(-c4cccs4)nc4ccccc34)nc2c1C	x	25%	1	x
C=C(C)Cn1c(C)cc(C)c(S(=O)(=O)c2cccc(C)c2)c1=O	-1.7%	0%	-5	21%
O=C(CSc1nnc(Cc2cccs2)n1Cc1ccco1)Nc1ccc(Br)cc1	0.9%	21%	-21	0%
CCOc1ccc(Cc2nnc(SCC(=O)Nc3ccc(C(C)=O)cc3)[nH]c2=O)cc1	4.7%	x	x	1%
Cc1ccc(S(=O)(=O)NC(=O)c2cccn2C)cc1	2.5%	0%	-8	-13%
COc1cc(CCC(=O)Nc2ccc(Cl)c(C(F)(F)F)c2)cc(OC)c1OC	3.2%	19%	-2	u
COc1ccc(OCC(=O)NCCNC(=O)c2ccccn2)cc1	-0.7%	-1%	x	-3%
Cc1cccc(-n2[nH]c(C)c(C=Nc3ccc4[nH]c(=O)[nH]c4c3)c2=O)c1	0.2%	-4%	-4	-19%
O=C(/C=C/c1ccc([N+](=O)[O-])cc1)NCc1ccccn1	-1.2%	-10%	6	-1%
CCCN1c2cccc3cccc(c23)S1(=O)=O	0.5%	-16%	2	4%
COC(=O)C1CCN(C(=O)COC(=O)c2cc(S(=O)(=O)N3CCOCC3)ccc2C)CC1	-1.9%	x	x	6%
NS(=O)(=O)c1ccc(NC(=O)CSc2n[nH]c(=O)n2C2CC2)cc1	-0.2%	x	x	23%
Cc1cc(C)cc(OCCCCn2cncn2)c1	-0.6%	-2%	x	12%
O=C(N/N=C/c1cccnc1)c1cc2ccccc2cc1O	4.6%	-18%	x	-13%
O=C(NCC1COc2ccccc2O1)c1cn(Cc2ccc(F)cc2)nn1 (centres undefined)	-2.4%	-2%	0	0%
O=C(CS(=O)(=O)c1ccccc1)Nc1ccccc1Br	-2.3%	x	x	-3%
COc1ccc(C(=O)NCC(=O)Nc2cccc(S(=O)(=O)NCc3ccco3)c2)cc1OC	-3.8%	-1%	2	-2%
CC(=O)c1cccc(NC(=S)NC2CCCCCCC2)c1	3.4%	-17%	x	-10%
O=C(CN(CC1CCCO1)C(=O)c1nsc(Cl)c1Cl)NC1CCCC1 (centres undefined)	2.3%	1%	-5	-1%
Cc1noc(C(=O)NC2CCCCC2)c1Cl	0.2%	-9%	-9	-4%
CC(=O)NNC(=O)c1csc(-c2csc(C)n2)n1	-0.2%	0%	8	0%
O=C1c2cc(O)cc(O)c2C(=O)c2c1cc(O)c([C@@H](CO)CCO)c2O	1.1%	x	x	13%

An excerpt of the results above:
SMILES	Rango complex inh	miR-21 FLuc	GLA inh pH 4.5	Rango dissoc inh
COC(=O)C1CCN(C(=O)COC(=O)c2cc(S(=O)(=O)N3CCOCC3)ccc2C)CC1	-1.9%	x	x	6%
NS(=O)(=O)c1ccc(NC(=O)CSc2n[nH]c(=O)n2C2CC2)cc1	-0.2%	x	x	23%
Cc1cc(C)cc(OCCCCn2cncn2)c1	-0.6%	-2%	x	12%
O=C(N/N=C/c1cccnc1)c1cc2ccccc2cc1O	4.6%	-18%	x	-13%
O=C(NCC1COc2ccccc2O1)c1cn(Cc2ccc(F)cc2)nn1 (centres undefined)	-2.4%	-2%	0	0%

Other structures follow:
SMILES	Rango complex inh	miR-21 FLuc	GLA inh pH 4.5	Rango dissoc inh
COc1ccc(C(=O)O)cc1S(=O)(=O)Nc1cc(Cl)ccc1N1CCOCC1	-1.5%	x	x	8%
N#Cc1ccccc1S(=O)(=O)N1CCN(CC(=O)Nc2ccccc2C(=O)NC2CC2)CC1	1.5%	x	x	17%
O=C(Nc1ccc(S(=O)(=O)NC2=NCCCCC2)cc1)c1ccc2ccccc2n1	2.9%	-19%	-3	-9%
Cn1c(=O)c2c(nc(SCCN3CCCCC3)n2Cc2ccccc2)n(C)c1=O	u	0%	-2	0%
COc1ccc2[nH]c3c(=O)n(Cc4ccncc4)cnc3c2c1	-1.4%	-5%	8	22%
COc1ccccc1N1CCN(C2CCCN(S(=O)(=O)c3cccc(Cl)c3)C2)CC1 (centres undefined)	2.2%	5%	x	26%
Cc1c(Cl)ccc2c(C(N)=O)cc(-c3ccccn3)nc12	-1.5%	0%	0	10%
Cn1c(SCc2ccc(Cl)cc2)nc(C(F)(F)F)cc1=O	6.5%	2%	-5	-2%
CCCCn1c(-c2ccco2)nc2ccccc2c1=O	-2.5%	-3%	-2	-3%
CCCOC(=O)C[N+](C)(C)CCOC1CC2CCC1(C)C2(C)C (centres undefined)	0.5%	9%	1	-8%
COc1ccc(/C=N/NC(=O)c2cccnc2)cc1COc1ccc([N+](=O)[O-])c(C)c1	3.4%	27%	-5	8%
COCC(C)NC(=O)c1ccccc1[N+](=O)[O-] (centres undefined)	1.7%	-2%	-1	6%
O=C(c1ccc2c(c1)OCO2)C1CCCN(Cc2cccc(C(F)(F)F)c2)C1 (centres undefined)	-0.5%	-5%	x	-11%
CC(=O)c1c(C)[nH]c(C(=O)COC(=O)CCOc2ccc(C)cc2)c1C	-4.4%	x	x	2%
COc1ccc(S(=O)(=O)N/N=C(/C)c2ccncc2)cc1OC	1.3%	-4%	x	-4%
CCN(CC(=O)Nc1ccc(N2CCOCC2)cc1)C(=O)Cc1ccccc1	u	x	x	10%
CCCCCCNCc1c(F)cccc1Cl	4.9%	-1%	-2	4%
COc1ccc(-c2coc3cc4oc(=O)c5ccccc5c4cc23)cc1F	0.8%	u	9	13%
COC(=O)C(NC(C)=O)(Nc1ccc(Br)cc1)C(=O)OC	-1.1%	-10%	9	-6%
O=S(=O)(Nc1cccc(CO)c1)c1cccs1	1.3%	1%	5	3%
O=C(NCc1ccc(Cl)cc1)C(=O)NCC(c1ccco1)N1CCOCC1 (centres undefined)	-2.6%	-5%	3	-5%
CC(=O)Nc1nc(-c2ccccc2)nc(C)c1C(C)=O	-0.1%	-2%	-5	2%
COc1ccc(-n2cc3c(-c4cccc(Br)c4)nnc(C)c3n2)cc1	0.3%	-5%	-2	-12%
Cc1ccc(S(=O)(=O)NCC(=O)N(CC(=O)NC2CCCCC2)Cc2ccco2)cc1	-2.0%	-4%	4	12%
COc1ccccc1NC(=O)CSc1nnc(C)n1Cc1ccccc1	-2.1%	-7%	-20	-10%
O=C(NNC(=S)NCc1ccc(Cl)cc1)c1ccc2c(c1)OCO2	-1.8%	-3%	6	6%
Cc1cc(C)cc(C(=O)Nc2cccnc2Cl)c1	-0.1%	-21%	x	-2%
COCc1[nH]nc2c1C1(C(=O)Nc3ccc(F)cc31)C(C#N)=C(N)O2 (centres undefined)	0.7%	0%	2	0%
COc1ccc(N=C2C(=Nc3ccc(OC)cc3)N(c3ccccc3)C(=S)N2C(=O)c2ccc(Cl)cc2)cc1	-0.7%	-63%	2	-2%
CCOC(=O)c1ccc(NS(=O)(=O)c2cccc3nsnc23)cc1	0.4%	-12%	2	-8%
CN(CC(=O)NC(=O)NCc1ccccc1)CC(=O)Nc1ccc(Cl)c(Cl)c1	-2.4%	x	x	15%
Cc1cccc(NC(=O)CNC(=O)COc2ccc(C(=O)c3ccc(F)cc3)cc2)c1C	0.7%	1%	3	-9%
Cc1ccc(C(=O)NCc2ccc3c(c2)CCO3)cc1C	-2.5%	-73%	0	-19%
CCOC(=O)c1c(C)n(C)c2ccc(OC)c(NC(=O)c3cccs3)c12	-2.0%	0%	-11	4%
CCN1C(=O)[C@H]2[C@@H](c3ccc(C)cc3)N3C(=O)N(c4cccc(Br)c4)C(=O)[C@@]3(C)[C@H]2C1=O	2.5%	x	x	0%
CCOC(=O)C1CCN(C(=O)CN2C(=O)C(C(C)C)Oc3ccccc32)CC1 (centres undefined)	-1.2%	-11%	x	9%
COc1ccc(C(=O)O/N=C(\N)Cc2cccs2)cc1OC	-0.1%	3%	x	7%
COc1ccc(N2CCN(CCNC(=O)Nc3cc(Cl)ccc3OC)CC2)cc1	2.8%	-9%	x	0%
CCCCCCCNC(=O)CN1C(=O)CSc2ccc(S(=O)(=O)N3CCOCC3)cc21	4.6%	0%	x	12%
O=C(CCc1ccccc1)NCCc1ccc(F)cc1	1.0%	-18%	x	-8%
O=C(Cn1cnc2ccccc2c1=O)N(Cc1ccco1)c1ccc(O)cc1	-0.8%	-6%	0	3%
